Rango release inh – prevents RanGTP from dissociating the Rango-importin beta complex; 340,000 compounds, 0.071% hits; Biochemical FRET Rango-importin beta, RanGTP-induced dissociation; O95149+P62826; Potency, µM (titrated, usually from 46.1 µM), for inactives: at the top dose activity change, negative = inhibition; active means falling FRET ratio curve, often poorly fitted, with flat reads before Ran was added; inconclusive means other falling curves, or compound fluorescence or quenching; inactive means flat or rising ratio curve;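 further: potency means the concentration at half of the fitted maximal effect; % of control where 0% means no effect; nearly all actives have a fitted effect of over 45% in size; -100% = wells without RanGTP and RCC1; the record marks most hits as doubtful in a second field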
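Compounds preincubate 5 min with complex of recombinant Rango and importin beta in PBS with 1 mM DTT. Ran (0.6 uM) loaded with 2 mM GTP plus 0.2 uM RCC1 starts dissociation; FRET is recorded 45 min later.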
Rango-impB inh – inhibitors of Rango-importin beta complex formation. Q14974. Rango CFP/YFP FRET sensor + importin beta, 45 min. Potency, µM (highest dose often 92.2 µM), for the others: top-dose inhibition of complex formation. 340,000 compounds, 0.031% hits. AID 540263; active = rising FRET ratio curve, often small or poorly fitted; inconclusive = mostly compound fluorescence or quenching in the first reads; inactive = flat curves in all reads;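 further: potency means the concentration at half of the fitted maximal effect; 0% = DMSO wells and 100% = buffer wells lacking importin beta; nearly all actives have a fitted effect of over 15% in size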
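FRET biosensor (snurportin 1 IBB flanked by EYFP and cerulean), 50 nM, with compound 5 min, then 0.125 microM importin beta in PBS, 1 mM DTT, 0.02% Tween-20, 0.1% BSA. CFP/YFP ratio read after 45 min at room temperature; pre-read flags interference.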
GLA inh pH 4.5 – inhibitors of human alpha-galactosidase A at pH 4.5. 230,000 tested, under 10 active. AID 1467. P06280. purified enzyme, 4-MU-alpha-Gal fluorescence, pH 4.5. activity change, negative = inhibition, % at 105 µM; inconclusive = small, poorly fitted or top-dose-only inhibition, or a rising curve; inactive = flat fitted curve, though single readings scatter; no compound was filed as active;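 further: 0% = full activity with enzyme and -100% = basal without enzyme; dose as in the result columns while the protocol names 77 µM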
Target sequence (P06280 whole entry, looked up): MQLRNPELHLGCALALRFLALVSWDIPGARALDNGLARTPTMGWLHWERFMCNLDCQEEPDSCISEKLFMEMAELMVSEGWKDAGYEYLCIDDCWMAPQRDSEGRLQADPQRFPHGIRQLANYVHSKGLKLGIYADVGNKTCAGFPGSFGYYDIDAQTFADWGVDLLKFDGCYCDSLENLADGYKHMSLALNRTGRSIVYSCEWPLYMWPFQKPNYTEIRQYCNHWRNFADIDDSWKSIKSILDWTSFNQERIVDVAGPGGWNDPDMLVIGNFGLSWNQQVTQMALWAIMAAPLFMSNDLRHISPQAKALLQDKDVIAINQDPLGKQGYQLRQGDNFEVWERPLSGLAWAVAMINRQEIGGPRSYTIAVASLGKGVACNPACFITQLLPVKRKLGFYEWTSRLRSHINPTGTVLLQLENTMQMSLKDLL
miR-21 FLuc – raises the signal of a miR-21 reporter; HeLa miR-21 FLuc reporter, luciferase, 48 h; Potency, µM (titrated, usually from 38.3 µM), for the others: top-dose reporter change, positive = more light; 340,000 tested, under 10 active; active = well fitted rising curve with a large enough effect; inconclusive = small, poorly fitted or top-dose-only effect; inactive = no such curve, though single readings can be large or run the other way;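 further: % of control where 0% means no effect; miR-21 action dims this reporter so a rising signal means less miR-21 action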
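Compounds were titrated across several concentrations (up to approximately 40 uM) and incubated 48 hours with HeLa miR-21-FLuc reporter cells (miR-21 target sequence downstream of FLuc, endogenous miR-21). Readout was firefly luciferase luminescence after lytic detection reagent.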
Starred values were filed as active, the others as inactive; ? = inconclusive; nt = no result given; & = joins results of further samples. The list is partial (hit frequency here may not be typical).

SMILES	Rango release inh	Rango-impB inh	GLA inh pH 4.5	miR-21 FLuc
Cc1ccc(C(=O)N2CCN(CCNC(=O)C(=O)NCc3ccc(Cl)cc3)CC2)cc1	1.5%	5.4%	nt	0.0%
COc1ccc(OCC(=O)Nc2cccc(NC(=O)COc3ccc(OC)cc3)n2)cc1	0.1%	0.0%	3.2	-25.7%
Cc1cc(=O)[nH]c2c1cnn2C(C)c1ccccc1 (stereo not drawn)	19.6%	-0.4%	nt	-12.5%
CC1(C)N=C(N)NC(Nc2ccccc2Cl)=N1	11.0%	3.7%	6.0	-0.3%
CC(C)Sc1nc2ccccc2n2cnnc12	-8.4%	-0.7%	nt	-10.6%
O=C(CCCOc1ccccc1)Nc1ccc(Cl)c(S(=O)(=O)N2CCOCC2)c1	-28.6%	-3.7%	nt	nt
COC(=O)[C@H](Cc1ccccc1)NC(=O)N1Cc2ccccc2C[C@H]1C(=O)OC	-1.1%	0.3%	nt	-0.1%
Cc1ccc(C(=O)Nc2nc(=O)n(C(=O)c3ccccc3C)s2)cc1	-16.9%	-1.6%	0.6	-8.8%
COc1ccccc1C(=O)O/N=C(\c1ccccc1)c1ccncc1	1.9%	1.9%	-4.4	-5.4%
CCN1C[C@@H]2[C@@H]3C(=O)N(C)C(=O)[C@@H]3[C@](CC)(C1=O)N2C(=O)c1ccc(C(C)(C)C)cc1	11.8%	?	nt	nt
Cc1nc(C)c(C(=O)Nc2ccc(Oc3ccccc3)cc2)o1	?	?	-7.8	-2.6%
CCN(C(=O)COc1ccccc1[N+](=O)[O-])C1CCS(=O)(=O)C1 (stereo not drawn)	24.8%	-0.5%	3.6	-2.7%
COc1ccc(N2C(=O)CC(Sc3nnc(-c4ccccc4)o3)C2=O)cc1 (stereo not drawn)	-2.7%	-2.5%	1.6	?
CCOC(=O)c1cccc(NC(=O)CN(c2ccc(C)cc2)S(=O)(=O)c2c(C)noc2C)c1	-7.9%	-4.9%	-22.8	18.6%
O=C(Nc1ccc2c(c1)OCCO2)N1CCN(c2ccc(F)cc2)CC1	-17.6%	-2.7%	-1.4	-26.3%
COc1ccc(C2CC(C(F)(F)F)n3nc(C(=O)O)c(Cl)c3N2)cc1OC (stereo not drawn)	14.2%	?	1.8	0.8%
COc1ccc(CCNC(=O)COc2cc(C)cc3oc(=O)c(C)c(C)c23)cc1OC	0.9%	5.0%	nt	nt
Cc1ccc(-c2nn(CCC(=O)O)cc2/C=C\C(=O)c2ccc(Br)cc2)cc1	-7.5%	1.3%	-7.5	7.4%
O=C(CSc1nnc2ncccn12)N1CCCCCC1	-27.5%	2.4%	-8.3	-13.1%
CN(C)c1ccc(NC(=O)c2ccc3nsnc3c2)cc1	20.7%	2.9%	-2.2	-29.1%
O=C(NC1CCCC1)C(c1ccc(F)cc1)N(C(=O)Cc1cccs1)c1ccc2c(c1)OCCO2 (stereo not drawn)	10.1%	2.3%	7.5	0.6%
COc1ccccc1CNC(=O)N1CCN(c2ccccc2C)CC1	-1.8%	-1.0%	nt	-9.4%
COc1cc(/C=N/NC(=S)Nc2cccc(Cl)c2C)ccc1OCC(=O)N1CC(C)OC(C)C1 (stereo not drawn)	7.8%	1.6%	-14.9	19.5%
COc1cc(C)c(Cl)cc1S(=O)(=O)NCC1CCCO1 (stereo not drawn)	-8.9%	3.3%	-2.3	-2.6%
Nc1nn(S(=O)(=O)c2ccccc2)cc1-c1ccc([N+](=O)[O-])cc1	0.7%	-1.3%	8.0	19.5%
OCCN(CCO)CC(O)COc1ccc2c(c1)OCO2 (stereo not drawn)	4.6%	-1.8%	7.9	-3.7%
CC(CNC(=O)Cn1cnc2c(NCc3ccccc3)ncnc21)c1ccccc1 (stereo not drawn)	?	2.5%	nt	nt
O=S1(=O)N=C(N/N=C/c2ccco2)c2ccccc21	-6.2%	2.1%	2.1	0.3%
NS(=O)(=O)c1cccc(NC(=S)NC(=O)c2cccc([N+](=O)[O-])c2)c1	10.7%	1.7%	2.6	3.3%
CCc1noc(C)c1C(=O)Nc1nc(-c2cccs2)cs1	-7.0%	-5.0%	nt	nt
O=C(N/N=C/c1cccs1)c1ccc(-n2cccc2)cc1	-16.6%	-3.8%	0.6	-25.9%
O=C1C(=O)c2c(ccc3ccccc23)-c2ccccc21	-2.5%	-4.4%	nt	nt
CN(CC(=O)Nc1ccccc1Br)C(=O)CNC(=O)c1cccs1	18.9%	-0.1%	nt	nt
Cc1ccc(S(=O)(=O)N(C)CCCC(=O)Nc2ccncc2)cc1	21.0%	0.4%	-6.2	19.7%
O=C(c1cc(COc2c(F)cccc2F)on1)N1CCN(C2CCCCC2)C(=O)C1	-7.9%	0.5%	nt	-0.9%
Cc1c2cnn(CC(=O)NCCCN3CCCCC3C)c(=O)c2c(C)n1Cc1ccccc1 (stereo not drawn)	?	-8.0%	nt	-6.0%
CN(CC(=O)NCc1cccs1)CC(=O)Nc1ccc(F)c(F)c1F	-1.5%	-2.9%	nt	-0.9%
NC(=S)N/N=C/c1ccccc1OCc1cccc(Cl)c1	5.0%	-1.0%	-1.8	23.0%
Cc1ccc(NC(=S)N(Cc2cccs2)Cc2cc3cccc(C)c3[nH]c2=O)cc1	-3.6%	6.7%	-5.1	-2.1%
CS(=O)(=O)Nc1ccccc1C(=O)NCc1ccccc1Cl	8.6%	2.8%	-21.9	-4.1%
O=C(Nc1ccc(NC(=O)c2cccnc2Cl)cc1)c1cccc(Cl)c1	22.9%	-2.9%	nt	-12.5%
O=C(c1cccc(F)c1)N1CCN(c2ccc([N+](=O)[O-])c3cccnc23)CC1	-5.0%	?	-12.5	-9.3%
Cc1cc(C(=O)Nc2c(F)cc(F)cc2Br)c(C)o1	-1.7%	-3.6%	-1.5	0.1%
CC1CC(=O)C2=C(C1)Nc1ncnn1C2c1ccccc1 (stereo not drawn)	?	?	5.8	-1.5%
CCN(CC(=O)Nc1ccc2c(c1)OCCO2)S(=O)(=O)c1ccc(F)cc1	1.8%	-0.2%	nt	-12.0%
O=C(Cn1cc(C(=O)C2CCCCC2)c2ccccc21)NCC1CCCO1 (stereo not drawn)	2.5%	1.8%	-0.1	6.5%
CCOCCCNCc1cc(Br)ccc1OCc1ccccc1	-12.3%	-0.6%	-7.4	15.9%
O=C(CNc1ccc(Br)cc1)Nc1cccc(S(=O)(=O)N2CCCC2)c1	-1.4%	1.4%	nt	nt
Cc1ccc(-c2ccc(/C=N/NC(=O)CN3CCOCC3)o2)cc1[N+](=O)[O-]	0.3%	-0.1%	-7.0	12.0%
COc1ccc(-c2nc(CN3CCN(Cc4cccc(Cl)c4)CC3)c(C)o2)cc1	-10.8%	1.0%	nt	-0.5%

The list continues.
SMILES	Rango release inh	Rango-impB inh	GLA inh pH 4.5	miR-21 FLuc
COC(=O)C1=C(C)NC(=O)CC1c1ccc(C(=O)OC)cc1 (stereo not drawn)	10.4%	-5.9%	2.9	-1.3%
COc1cc(OC)c(OC)cc1/C=N/NC(=O)c1ccc(=O)n(C)c1	2.7%	3.2%	-4.7	-0.8%
CNC(=O)CSc1nc2ccccc2c(=O)n1-c1cc(OC)ccc1OC	10.5%	-4.6%	0.8	0.9%
COc1cccc(-c2nc(-c3ccc(Br)o3)no2)c1	-5.7%	-1.6%	-2.9	-52.5%&-43.9%
O=C(O)c1cn(-c2ccc(F)c(F)c2)c2c(F)c(F)c(F)c(F)c2c1=O	16.6%	-0.7%	1.3	-6.3%
CC(C)Cn1c(N)c(C(=O)COC(=O)c2ccc(F)cc2)c(=O)n(C)c1=O	-16.4%	-3.6%	-1.1	6.7%
CCCCCCCC[n+]1cccc(C(=O)N2c3c(nc(N)[nH]c3=O)NC(C)C2C)c1 (stereo not drawn)	-6.0%	-2.4%	-7.3	-1.1%
CCOC(=O)CC(=O)CSc1ncnc2c1nnn2-c1ccc(F)cc1	-13.1%	0.7%	6.0	-11.8%
CCN1CCCC1CNC(=O)c1cc(S(=O)(=O)N(C)C)ccc1Cl (stereo not drawn)	-3.9%	4.0%	nt	-3.7%
O=C(NCc1ccncc1)C(=O)NCc1ccco1	0.3%	0.1%	2.1	-1.7%
Cc1noc(C)c1COc1ccc(C(=O)OCC(=O)Nc2c(C)n(C)n(-c3ccccc3)c2=O)cc1	-0.8%	1.2%	-14.7	-2.1%
COc1cccc2cc(/C(=N/O)c3ccccc3)oc12	29.3%	1.3%	-0.7	-35.8%
O=C1CNC(=O)/C1=C\N1CCCCC1	-7.3%	-0.9%	-0.5	-4.2%
COc1ccc(N=Nc2ccc(O)c3ncccc23)cc1	-2.6%	5.8%	3.4	-0.1%
O=C(CNC(=O)c1ccc(-c2ccccc2)cc1)Nc1cccc(CO)c1	2.0%	-2.4%	nt	nt
O=C1C2C3c4ccccc4C(c4ccccc43)C2C(=O)N1Cc1ccco1 (stereo not drawn)	0.3%	-0.6%	2.9	4.3%
O=S(=O)(c1ccccc1)c1nnn2c1nc(NC1CCN(Cc3ccccc3)CC1)c1ccccc12	1.3%	-3.3%	nt	-3.1%
O=C(NNS(=O)(=O)c1cc(Cl)cc(Cl)c1)c1sccc1-n1cccc1	-0.6%	-4.4%	2.4	-3.5%
Cc1ccc(C)n1-c1nccc(-c2ccco2)n1	?	?	?	1.3%
COCc1cc(=O)[nH]c(/N=C(\N)Nc2ccc(Oc3ccccc3)cc2)n1	6.0%	-1.8%	-6.1	-9.2%

Molecules above that have a nitro group on carbon, in the order listed:
SMILES	Rango release inh	Rango-impB inh	GLA inh pH 4.5	miR-21 FLuc
CCN(C(=O)COc1ccccc1[N+](=O)[O-])C1CCS(=O)(=O)C1 (stereo not drawn)	24.8%	-0.5%	3.6	-2.7%
Nc1nn(S(=O)(=O)c2ccccc2)cc1-c1ccc([N+](=O)[O-])cc1	0.7%	-1.3%	8.0	19.5%
NS(=O)(=O)c1cccc(NC(=S)NC(=O)c2cccc([N+](=O)[O-])c2)c1	10.7%	1.7%	2.6	3.3%
O=C(c1cccc(F)c1)N1CCN(c2ccc([N+](=O)[O-])c3cccnc23)CC1	-5.0%	?	-12.5	-9.3%
Cc1ccc(-c2ccc(/C=N/NC(=O)CN3CCOCC3)o2)cc1[N+](=O)[O-]	0.3%	-0.1%	-7.0	12.0%

Other structures.
SMILES	Rango release inh	Rango-impB inh	GLA inh pH 4.5	miR-21 FLuc
CCCn1c(SCC(=O)Nc2cc(S(=O)(=O)N3CCOCC3)ccc2OC)n[nH]c1=O	5.9%	4.1%	-6.6	-5.9%
COc1ccc(CCNC(=O)Cc2cc(OC)c(OC)cc2Br)cc1OC	-8.2%	-0.1%	-0.6	-0.3%
CCOC(=O)C1CCN(C(=O)C2CCN(S(=O)(=O)c3ccc4c(c3)CC(C)N4C(C)=O)CC2)CC1 (stereo not drawn)	-1.1%	4.0%	nt	2.8%
Cn1c(N)cc(=O)n(Cc2ccccc2)c1=O	16.1%	1.4%	3.1&-17.4	-9.1%
CC1CC1C(=O)OCC(=O)Nc1cccc([N+](=O)[O-])c1 (stereo not drawn)	-4.2%	-0.6%	16.7	-1.7%
CCC(c1ccc(O)c(O)c1)C(CC)c1ccc(O)c(O)c1 (stereo not drawn)	-4.5%	3.1%	nt	nt
Cc1c(Cl)cnc(NC(=O)COC(=O)CNC(=O)c2ccccc2)c1Cl	1.1%	?	nt	nt
CCc1ccccc1NC(=O)C1CCCN(c2ncnc3onc(-c4ccc(F)cc4)c23)C1 (stereo not drawn)	-5.2%	-11.7%	nt	-2.1%
CCOC(=O)c1ccccc1N1C(=O)C2Sc3[nH]c(=O)sc3C(/C=C/c3ccccc3)C2C1=O (stereo not drawn)	?	?	-3.7	-8.6%
O=C(O)C1CCCN(C(=O)c2cccc3ccccc23)C1 (stereo not drawn)	1.1%	0.8%	nt	-7.1%
CCCCn1c(N)c(N(CC(C)C)C(=O)c2ccc(-c3ccc([N+](=O)[O-])cc3)o2)c(=O)[nH]c1=O	0.7%	-3.7%	nt	nt
O=C(CSc1nc2ccccc2o1)Nc1ccc(Cl)cc1	14.4%	0.0%	6.8	-32.8%
